Assay outcomes: PubChem BioAssay, several laboratories
PKD1 kinase inh – blocks activity of human protein kinase D1; Q15139; PKD1 kinase fluorescence polarization assay; inhibition, %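 (about 10 µM by stock and volumes)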; 0.056% of 200,000 active;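 active = inhibition of 50% or more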;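 also: controls were vehicle for no effect and a reference inhibitor for full effect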
Target sequence (Q15139 whole entry, looked up): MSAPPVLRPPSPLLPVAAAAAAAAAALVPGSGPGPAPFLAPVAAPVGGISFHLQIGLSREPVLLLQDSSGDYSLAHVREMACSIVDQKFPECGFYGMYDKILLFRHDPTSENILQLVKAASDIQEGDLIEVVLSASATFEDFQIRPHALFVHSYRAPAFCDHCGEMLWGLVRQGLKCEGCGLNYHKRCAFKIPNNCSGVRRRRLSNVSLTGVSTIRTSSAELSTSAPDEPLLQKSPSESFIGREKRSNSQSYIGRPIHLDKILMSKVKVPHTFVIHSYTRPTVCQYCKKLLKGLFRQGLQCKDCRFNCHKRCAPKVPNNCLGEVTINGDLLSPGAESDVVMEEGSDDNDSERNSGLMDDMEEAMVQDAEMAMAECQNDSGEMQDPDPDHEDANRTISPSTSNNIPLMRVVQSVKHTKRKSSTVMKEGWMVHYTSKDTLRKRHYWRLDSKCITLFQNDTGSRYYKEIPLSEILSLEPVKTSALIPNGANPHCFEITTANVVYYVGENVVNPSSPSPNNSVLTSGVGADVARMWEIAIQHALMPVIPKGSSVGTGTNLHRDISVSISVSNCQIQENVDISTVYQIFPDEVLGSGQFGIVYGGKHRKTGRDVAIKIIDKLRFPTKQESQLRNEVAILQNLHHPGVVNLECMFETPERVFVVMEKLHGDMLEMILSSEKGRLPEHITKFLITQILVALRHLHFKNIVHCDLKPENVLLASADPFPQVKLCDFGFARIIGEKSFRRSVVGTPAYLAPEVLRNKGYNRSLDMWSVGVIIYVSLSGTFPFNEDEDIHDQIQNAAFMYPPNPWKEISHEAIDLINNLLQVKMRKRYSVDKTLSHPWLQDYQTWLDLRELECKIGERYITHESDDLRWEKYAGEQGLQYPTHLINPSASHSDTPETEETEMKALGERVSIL
GALR2 agonist – agonists of human galanin receptor 2 (GALR2); AID 803; O43603; activation, %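 (tested at 5 µM)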; 0.48% of 140,000 active; GALR2-expressing cells, agonist activation read-out;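 active = above mean plus 3 SD of all compounds, about 5% in these data, not always enough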;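 also: 0% = vehicle buffer wells and 100% = reference agonist at full effect; tested in CHO reporter cells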
INS promoter inh – TRM-6 insulin promoter activity inhibition. TRM-6 cells (human fetal islet line), insulin promoter-eGFP reporter, imaging; reporter expression induced with tamoxifen. AID 1273. inhibition, % at 2 µM. 0.9% of 130,000 active;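 active = inhibition above the mean plus 3 SD, with well images judged a real hit on visual review, cut at about 60% in these data, passing the limit was not always enough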
RGS16-Gao HTS – regulators of human RGS16-Galphao interaction. O15492+P09471. bead-based flow cytometry RGS16-Galphao binding, fluorescence; actives lie on both sides. binding response (% of control), % at 10 µM. 0.38% of 220,000 active. AID 1441;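 active = below 25% or above 175%, edge rows of some plates excepted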;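 also: Galphao activated by GDP with aluminum fluoride before binding; 100% = wells without compound and 0% = beads without RGS; some results beyond the cut were filed as inactive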
HSV replic up – increases HSV replication in cells. HSV replication augmentation in cells, fold increase. maximum fold increase. 0.005% of 220,000 active;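 active = peak rise of 1.5-fold or more in the series; tested in PC3 cells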;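 also: first round at 10 µM; read as green reporter fluorescence; hits show the peak of a series up to 25 µM; 1 = signal of infected wells without compound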
INS promoter inh cell count – also measured in INS promoter inh; calls as there; normalized cell count, %; measured here: cell count, toxicity; reference of the scale not given here;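 cells exposed to compound for 48 h; stained nuclei by imaging scaled within each plate; lower means fewer cells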
HSV replic up primary fold – recorded beside HSV replic up, whose call it bears; fold increase; compound at 10 µM; measured here: primary screen fold increase 10 uM; tested in PC3 cells;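 GFP signal in the first replicate; 1 = infected wells without compound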
* = called active by the depositor; i = inactive; / = not tested or not shown.

SMILES | PKD1 kinase inh | GALR2 agonist | INS promoter inh | INS promoter inh cell count | RGS16-Gao HTS | HSV replic up | HSV replic up primary fold
O=C(COc1ccc(Cl)cc1)N1CCN(c2ccc([N+](=O)[O-])c(N3CCCCC3)c2)CC1 | -10 | -4.7 | -25 | 92 | 100 | i | 1
CC(=O)OCC(OC(C)=O)C(OC(C)=O)C(OC(C)=O)C(=O)Nc1ccccc1C (stereo not given) | 0 | 0.3 | -8 | 130 | 117 | i | 0.82
Cc1ccc(NC(=O)COC(=O)CN2C(=O)NC(C)(C)C2=O)cc1S(=O)(=O)N1CCOCC1 | -7 | / | 79* | 160* | 111 | i | 1
COc1ccc(C)cc1S(=O)(=O)N(C)CC(=O)NC1CCCCCC1 | -5 | / | / | / | 101 | i | 0.91
COc1ccc(NC(=O)CN2CCOCC2)cc1 | 0 | 0.7 | -13 | 109 | 96 | i | 0.83
COc1cc(/C=N/NC(=O)c2nc(C)cc(C)n2)ccc1O | -3 | -0.2 | -12 | 94 | 101 | i | 1.1
O=C(CSc1nnc(Cc2ccccc2)n1C1CCCCC1)N1CCOCC1 | 0 | 0.7 | -19 | 135 | 103 | i | 0.84
Cc1cc2cc(CN(Cc3ccc4c(c3)OCO4)Cc3nnnn3C3CCCC3)c(=O)[nH]c2cc1C | 2 | -1.5 | / | / | 97 | i | 1
COc1ccc(-n2c(Cc3cccn3C)nnc2SCC(=O)Nc2cc(C)cc(C)c2)cc1 | -12 | -1.1 | / | / | 106 | i | 0.94
CCCc1c(C)nc2ccc(OC)cc2c1SCCC(=O)O | 4 | -1.0 | 50 | 60 | 91 | i | 0.97
COC(=O)c1ccc(=O)n(CC(=O)c2ccc(Cl)cc2)c1 | -2 | / | -21 | 104 | 97 | i | 1
COC(=O)Cc1ccc(NC(=S)NCCO)cc1 | / | / | / | / | 101 | i | 1.3
CNc1ncc(C(=O)C(C)(C)C)s1 | -1 | 0.0 | -25 | 92 | 101 | i | 0.91
CCOC(=O)C1C(c2ccccc2)C(C(=O)OCC)C1c1ccccc1 (stereo not given) | -6 | -1.4 | -20 | 141 | 111 | i | 0.8
COCCNc1nc(-c2ccccc2)nc2ccccc12 | -3 | / | 57 | 130 | 101 | i | 0.71
CCn1ccc(C(=O)Nc2ccc(S(=O)(=O)Nc3ccccc3OC)cc2)n1 | 0 | -1.7 | 58 | 117 | 100 | i | 0.9
CC(C)(C)c1cc(C(=O)Nc2ccccc2)ccn1 | 0 | -2.2 | 23 | 126 | 93 | i | 0.92
COCCNC(=O)c1ccccc1-c1nc(-c2ccccc2Cl)no1 | -14 | -4.9 | 33 | 117 | 136 | i | 0.9
CCOc1ccc(/C=C2\SC(=S)N(NS(=O)(=O)c3ccc(C)cc3)C2=O)cc1OC | / | / | / | / | 101 | i | 0.96
CC(=O)c1ccc(NC(=O)c2ccc3c(Cl)c4c(nc3c2)CCCC4)cc1 | -1 | -0.2 | 8 | 103 | 140 | i | 1.1
CN(C(=O)C1CCOC1)c1nnc(-c2cccnc2)s1 (stereo not given) | -5 | 0.4 | 35 | 131 | 104 | i | 0.96
Cc1ccnc(NC(=O)Nc2ccc3c(c2)OCO3)c1 | -8 | / | 43 | 137 | 99 | i | 0.98
CC(C)(C)NC(=O)COC(=O)c1ccc(NC(=O)CC#N)cc1 | -2 | / | -48 | 130 | 98 | i | 1.1
Cc1cc(N=NC(=O)c2ccccc2O)c2ccccc2c1O | -4 | / | -7 | 101 | 114 | / | /
Cc1ccccc1CSc1nnc(C)c(=O)[nH]1 | -16 | -0.4 | / | / | 100 | i | 0.94
COC(=O)C1C(=O)C2=C(CC1C)Nc1ccccc1NC2c1cccs1 (stereo not given) | 9 | / | -62 | 97 | 99 | i | 0.97
Cn1nnnc1SCC(=O)NNC(=O)c1ccc(Br)cc1 | 0 | / | 9 | 149 | 114 | i | 1
Nc1ccccc1C(=O)NNC(=O)C(=O)/C=C(\O)c1ccccc1 | / | / | / | / | 102 | i | 1.1
O=C(NCc1ccccc1)c1cc(=O)nc2sc(-c3ccccc3)nn12 | -5 | 0.8 | / | / | 100 | i | 0.99
Cc1ccc(NC(=O)c2ccccc2NS(=O)(=O)c2ccc(Cl)s2)cc1 | -3 | -2.1 | 50 | 118 | 108 | i | 0.81
CCc1cc(-c2nc(N)ncc2-c2csc(C)n2)c(O)cc1OC | -7 | / | -3 | 135 | 110 | i | 0.88
C=CCn1c(SCCC)nc2sc3c(c2c1=O)CCc1ccccc1-3 | -11 | -0.1 | -29 | 77 | 84 | i | 1.1
CCN(CC)C1CCN(C(=O)CCc2nnc(CCc3ccccc3)o2)C1 (stereo not given) | 5 | / | / | / | 94 | i | 1
CCC(C)Nc1nc(N)c([N+](=O)[O-])c(Nc2ccccc2OC)n1 (stereo not given) | / | / | / | / | 87 | i | 0.76
COc1ccc(C)cc1S(=O)(=O)N1CC(C)OC(C)C1 (stereo not given) | -5 | / | 48 | 148 | 112 | i | 0.95
O=C(N/N=C/c1ccc2nccnc2c1)c1cccc([N+](=O)[O-])c1 | -2 | / | 0 | 109 | 104 | i | 0.95
Cc1cccc2sc(N(CCN(C)C)C(=O)c3cc(Cl)sc3Cl)nc12 | -5 | 0.1 | -6 | 155 | 104 | i | 0.96
CCCCN(C(=O)CNC(=O)c1ccco1)C(C(=O)NC1CCCC1)c1ccc(OC)cc1 (stereo not given) | 4 | -0.3 | -63 | 70 | 101 | i | 0.91
CC(Sc1nncn1C)C(=O)Nc1nnc(C(C)C)s1 (stereo not given) | -8 | -2.0 | -10 | 168 | 107 | i | 1
NC(=O)C1=CN(Cc2ccc(Cl)cc2)CCC1C(F)(F)F (stereo not given) | / | / | / | / | 101 | i | 1.1
O=C1N(Cc2cccc(Cl)c2)C[C@@H]2C[C@@H](c3c[nH]c4ccccc34)N3CCC[C@@]123 | 11 | / | / | / | 98 | i | 1.2
CCOP(=O)(OCC)/C(C#N)=C(\O)c1ccc(OC)cc1 | / | / | / | / | 100 | i | 0.95
COc1cc(C(=O)O)ccc1Cl | / | / | / | / | 104 | i | 1
CC(C)(C)c1ccc(C(=O)CS(=O)(=O)c2ccccc2)cc1 | -3 | -0.4 | / | / | 101 | i | 0.85
CC1CCCN(C(=O)c2ccc3c(=O)n(Cc4ccc5c(c4)OCO5)c(=S)[nH]c3c2)C1 (stereo not given) | -6 | -1.1 | 5 | 86 | 77 | i | 0.9
CN(c1ccccc1)c1nc2ccsc2c(=O)s1 | -4 | -0.4 | 10 | 52 | 113 | i | 0.97
CN(Cc1ccccc1)C1=CC(=[N+]2CCCC2)CC(C)(C)C1 | / | / | / | / | 100 | i | 0.88
COc1ccc(-n2c(SCC(=O)Nc3ncc(Cl)cc3Cl)nc3ccccc32)cc1 | 4 | / | / | / | 107 | i | 0.93
Cc1cc(C)cc(NC(=O)CSc2ccc(-c3ccco3)nn2)c1 | -6 | -0.3 | / | / | 97 | i | 0.93
Cc1cccc(OCCCC(=O)Nc2nccs2)c1 | 1 | -2.2 | -31 | 193 | / | i | 0.97
O=C(CNC(=O)c1cnccc1C(F)(F)F)c1cccc(Cl)c1 | / | / | / | / | 89 | i | 0.97
OCC1(CCOc2ccccc2)CCN(CCCn2cccn2)CC1 | 7 | / | / | / | 109 | i | 1.1
O=C(c1ccc(OC2CCN(Cc3ccccn3)CC2)cc1)N1CCCC(O)C1 (stereo not given) | 6 | / | / | / | 97 | i | 1
O=S(=O)(c1cccc(S(=O)(=O)N2CCC(Cc3ccccc3)CC2)c1)N1CCOCC1 | 0 | -0.1 | -3 | 97 | 109 | i | 0.98
CS(=O)(=O)Nc1ccc(C(=O)N2CCCCC2)cc1 | 0 | -1.4 | i | 33 | 66 | i | 0.88
COC(=O)C1CCN(CCCOc2ccc(CN3CCN(c4ccc([N+](=O)[O-])cc4)CC3)cc2)CC1 | 9 | / | / | / | 120 | i | 1.3
CCC(=O)N(C)CCc1cc2c(c(OC)c1/C=N/NS(=O)(=O)c1ccc(C)cc1)OCO2 | / | / | / | / | 105 | i | 0.94
Cc1cccc(CCNS(=O)(=O)c2ccc(S(=O)(=O)N3CCCCC3)cc2)c1 | 0 | -1.1 | -400 | 63 | 92 | i | 0.96
O=C(C1CCN(S(=O)(=O)c2cccc3cccnc23)CC1)N1CCN(c2ccc(Cl)cc2)CC1 | -7 | -0.1 | / | / | 99 | i | 0.9
CC1CC(C)CN(S(=O)(=O)c2ccc3c(c2)oc(=O)n3CC(=O)NCc2cccnc2)C1 (stereo not given) | / | / | / | / | 98 | i | 0.9

Other results
SMILES | PKD1 kinase inh | GALR2 agonist | INS promoter inh | INS promoter inh cell count | RGS16-Gao HTS | HSV replic up | HSV replic up primary fold
CC(C)NC(=O)c1cc2cc([N+](=O)[O-])ccc2s1 | -5 | -0.2 | -15 | 156 | 101 | i | 0.99
O=C1CCc2cc(S(=O)(=O)NC(Cc3ccccc3)C(=O)NCC3CCCO3)ccc2N1 (stereo not given) | -5 | -2.4 | / | / | 98 | i | 0.9
CC1(C)Cc2c(cnn2-c2ccccc2)C(=O)/C1=N\NC(=O)c1ccccc1N | 11 | -3.4 | -42 | 144 | 106 | i | 0.78
CCN1CCN(C(c2cccs2)C(C)NC(=O)C(C)C)CC1 (stereo not given) | -14 | -2.1 | / | / | 107 | i | 1
Cc1ccccc1C(=O)Nc1cccc(N)c1 | -4 | -1.0 | -233 | 132 | 99 | i | 1
CCN1C(=O)C2(SC(NC(C)=O)=NN2C(C)=O)c2cc(C)cc(C)c21 (stereo not given) | -2 | -0.2 | 0 | 107 | 8 | i | 0.9
CC(C)CNC(=O)COC(=O)c1ccc(Cl)c(S(=O)(=O)N2CCc3ccccc32)c1 | -3 | / | / | / | 101 | i | 1.1
Cc1nn2c([nH]c(=O)c3ccccc32)c1C=O | -2 | -1.2 | -35 | 182 | 101 | i | 0.95
O=C(N/C(=C/c1cccs1)C(=O)N1CCCCCC1)c1ccccc1 | -3 | -1.8 | -252 | 115 | 109 | i | 1.1
CCC(=O)Nc1ccc(C(=O)NNC(=O)Cc2ccccc2)cc1 | 9 | -0.3 | / | / | 84 | i | 1
O=C(/C=C/c1ccccc1[N+](=O)[O-])NCC1CCCO1 (stereo not given) | -6 | -1.7 | -16 | 135 | 104 | i | 0.99
COCCNC(=S)N/N=C/c1ccccc1C(=O)O | 3 | -0.9 | -13 | 148 | 100 | i | 1

Whole records, quoted from the list:
`COCCNC(=S)N/N=C/c1ccccc1C(=O)O` in the list: PKD1 kinase inh = 3; GALR2 agonist = -0.9; INS promoter inh = -13; INS promoter inh cell count = 148; RGS16-Gao HTS = 100; HSV replic up = i; HSV replic up primary fold = 1
`O=C1CCc2cc(S(=O)(=O)NC(Cc3ccccc3)C(=O)NCC3CCCO3)ccc2N1` (stereo not given) in the list: PKD1 kinase inh = -5; GALR2 agonist = -2.4; INS promoter inh = /; INS promoter inh cell count = /; RGS16-Gao HTS = 98; HSV replic up = i; HSV replic up primary fold = 0.9

Next part.
SMILES | PKD1 kinase inh | GALR2 agonist | INS promoter inh | INS promoter inh cell count | RGS16-Gao HTS | HSV replic up | HSV replic up primary fold
O=C1CN(C(=O)c2cc3ccccc3o2)c2ccccc2N1 | 4 | -2.3 | -3 | 61 | 97 | i | 1.1
O=C1CCC(C(=O)NCc2cccnc2)N1 (stereo not given) | -5 | -0.8 | -6 | 107 | 103 | i | 0.98
CCOC(=O)N1CCN(C(=O)Nc2ccccc2)CC1 | 0 | / | / | / | 107 | i | 0.93
CCOC(=O)C1CCN(C2CC(=O)N(c3cccc(Cl)c3)C2=O)CC1 (stereo not given) | -7 | -0.8 | / | / | 102 | i | 0.94
N#Cc1cnn(-c2ccccc2)c1N | 3 | -3.1 | 36 | 132 | 100 | i | 0.84
O=S(=O)(CCN1C=CC(C(F)(F)F)=NCC1)c1ccc(F)cc1 | / | / | / | / | 108 | i | 1.1
CCOCCCNC(=S)Nc1ccc2nc(N3CCCC3)cc(C)c2c1 | 16 | -1.7 | -23 | 112 | 106 | i | 1.1
O=[N+]([O-])c1ccc(N/N=C/c2c[nH]c3ccccc23)cc1 | -3 | -4.0 | -223 | 85 | 76 | i | 0.81
Cc1sc(N2C(=O)C3C(C2=O)[C@H]2C=C[C@@H]3C2)c(C#N)c1C (stereo not given in full) | / | / | / | / | 96 | i | 0.81
CCOC(=O)c1csc(NC(=O)c2ccc(OCC)cc2)n1 | -2 | / | / | / | 94 | i | 1.1
CCCCCCCCNC(C)C(O)c1ccc(SC(C)C)cc1 (stereo not given) | 16 | 2.0 | -32 | 116 | 101 | i | 0.62
COCCN(C(=O)COc1ccccc1)c1nnc(-c2cccnc2)s1 | -16 | -0.2 | 23 | 80 | 99 | i | 0.96
